# High-throughput results as filed in PubChem BioAssay.
# HSD17B inh: HSD17B dehydrogenase inhibition; Q99714; recombinant HSD17B10, NADH fluorescence kinetic; many of its hits are not listed in these tables; Potency, µM (series often up to 57.1 µM), for inactives: at the top dose activity change, negative = inhibition, most hits filed as inhibitors; hit rate 7.6% among 75,000; active = well fitted inhibition curve with a large enough effect; inconclusive = small, poorly fitted or top-dose-only effect; inactive = no such curve, though single readings can be large or run the other way;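 note: the protocol describes HADH2 (HSD17B10) and not the HSD17B4 of the title; nearly all actives have a fitted effect of over 70% in size; most hits overshoot -100% by far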
#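 Activity followed as NADH fluorescence increase (ex 360, em 450 nm) every 30 seconds for 4 min, using final 90 uM beta-hydroxybutyryl CoA and 1 mM NAD+. Recombinant His-tagged enzyme, 20 nM, pH 9.0 Tris buffer, 15 min compound preincubation.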
# Numbers without * were called inactive; ? = inconclusive; [ ] = dose if it differs, or a comment. % is set by controls: 0 for no effect and ±100 for the full control effect; potency is the fitted concentration of half-maximal effect. These rows are one share of the data; the hit share may differ from the screen's.
SMILES,HSD17B inh
Cc1ccc2[nH]c(=O)c(CN(Cc3cccs3)Cc3nnnn3CC3CCCO3)cc2c1 (stereo not drawn),5%
Cc1cc(=O)oc2cc(NC(=O)C3COc4ccccc4O3)ccc12 (stereo not drawn),?
CCOC(=O)CC(=O)Nc1nnc(C(C)C)s1,-7%
CCC(c1nnc(SCC(=O)NCCc2ccc(Cl)cc2Cl)o1)N(C)C (stereo not drawn),-17%
Oc1cccc(Nc2nc(NCC3CCCO3)c3ccccc3n2)c1 (stereo not drawn),16µM*
O=C(COC(=O)c1cc(-c2ccco2)nc2ccccc12)NCc1ccc2c(c1)OCO2,470%[activator]
CCOC(=O)c1ccccc1NC(=O)CN1CCC(n2nnc3cc(F)ccc32)CC1,-3%
CCCCn1c2nc3ccccc3nc2c2c(=O)n(CCC)cnc21,3.2µM*
Nn1c(SCc2nc3ccccc3[nH]2)nnc1-c1cccnc1,1%
CC(C)C(=O)N1CCC(CN=Cc2c(O)n(C3CCCCC3)c(=O)n(C3CCCCC3)c2=O)CC1,10%
COc1cc2[nH]c(=O)n(CCC(=O)N3CCN(c4cccc(C)c4C)CC3)c(=O)c2cc1OC,6%
O=C(NC1CCCCC1NC(=O)c1cccs1)c1cccs1 (stereo not drawn),?
CCSCc1nnc(SCC(=O)Nc2cccc(SC)c2)n1C,2%
Cc1nc(-c2ccccc2)nc2[nH]c(C(C)C)cc(=O)c12,-3%
CN(C)Cc1ccccc1-c1cncnc1Nc1ccncc1,3%
O=C(Oc1ccccc1)N1CCC[C@@]2(CCN(c3ccncc3)C2)C1,1%
N#CC1=C(N)N(c2ccc(Oc3ccccc3)cc2)C(=O)C1,-8%
O=C(CSc1nnc(Cc2cccs2)n1C1CCCCC1)N1CCCc2ccccc21,-26%
CCOc1ccc(N2C(=O)CSC23CCCCC3)cc1,-4%
CC1(C)CC(=O)c2cnc(N3CCN(c4ccccc4)CC3)nc2C1,1%
Cc1onc(-c2ccccc2)c1C(=O)n1nnc2ccccc21,0%
COc1ccc(NC(=O)CSc2nnc(N)s2)cc1,1%
CC1(C)S[C@@H]2[C@H](NC(=O)[C@H](C(=O)O)c3ccsc3)C(=O)N2[C@H]1C(=O)O,3%[25.6 µM]
CCCC1(C(=O)O)NC(c2ccccc2O)C2C(=O)N(Cc3ccccc3)C(=O)C21 (stereo not drawn),3%
Cc1cc(C)nc(/N=C2\NC(=O)CC(C(=O)O)N2CCc2c[nH]c3ccccc23)n1 (stereo not drawn),-12%
O=C(CCCn1c(=O)oc2ccccc21)N1CCc2ccccc2C1,-11%
CCOC(=O)c1ccc(N2C(=O)C(O)=C(C(C)=O)C2c2ccc(O)c(OC)c2)cc1 (stereo not drawn),-9%
COC(=O)c1ccc(NC(=O)CCn2cccc2)cc1,-1%
Cc1ccc(S(=O)(=O)C2(C(=O)N3CCCC(C)C3)CC2)cc1 (stereo not drawn),12%
Cc1ncc(C[n+]2csc(CCO)c2C)c(N)n1,-2%[25.6 µM]
Cc1cn(COC/C=C/c2ccccc2)c(=O)[nH]c1=O,-1%
CCC1=C2CC[C@H]3C(=O)N(CC)C(=O)[C@H]3[C@H]2[C@@]2(Cc3ccccc3)C(=NCC3CC3)OC(=O)N2C1=O,8%
[N-]=[N+]=N[C@@H]1[C@H](O)[C@H](CO)O[C@@H]1n1cnc2c(N)ncnc21,8%[11.4 µM]
CCSc1nnc(Cn2c(=O)sc3ccccc32)n1-c1ccc(OC)cc1,-25%
COCCc1nnc(NC(=O)Cc2ccccc2)s1,2%
COc1cc(O)c(C(=O)/C=C/c2ccccc2)c(O)c1,2%[11.4 µM]

# Quoted from the entries so far for reference:
SMILES,HSD17B inh
COCCc1nnc(NC(=O)Cc2ccccc2)s1,2%
COc1cc(O)c(C(=O)/C=C/c2ccccc2)c(O)c1,2%[11.4 µM]

# Further compounds follow:
SMILES,HSD17B inh
OB(O)c1csc2ccccc12,11%
COc1cc2c(cc1NC(=O)CCCN1C(=O)CCC1=O)oc1ccccc12,-6%
CCC(C)NC(=O)CC(NS(=O)(=O)c1ccc(Cl)cc1)c1ccco1 (stereo not drawn),-3%
CCCc1cc(=O)[nH]c(SCC)n1,18%
CCOC(=O)CNc1nc(OCC#N)nc(N2CCOCC2)n1,7%
O=C(CCn1c(=O)oc2ccccc21)Nc1cccc(Cl)c1,-6%
CN1CCN(CCCNC(=O)c2ccc(CS(=O)(=O)c3ccc(Br)cc3)o2)CC1,12%
COc1ccc(N2CCN(Cc3cc(=O)oc4ccc(Cl)cc34)CC2)cc1,-11%
Cc1ccccc1CSc1nc2c(c(=O)[nH]1)CCC2,4%
COc1ccc(-c2n[nH]c(C(F)(F)F)c2-c2cc3ccccc3o2)c(O)c1,25µM*
C=CCn1c(-c2cccc(Cl)c2)n[nH]c1=S,-16%
COc1ccc(NC(=O)C2CCCN(S(=O)(=O)c3c(C)n[nH]c3C)C2)c(OC)c1 (stereo not drawn),-9%
O=C(COC(=O)c1cccs1)NCC1CCCO1 (stereo not drawn),7%
CCCC1c2ccc(C)n2CCN1C(=O)Nc1ccccc1Cl (stereo not drawn),-4%
CCN(CC)S(=O)(=O)c1ccc(-c2nnc(SCC(=O)N3c4ccccc4CC3C)o2)cc1 (stereo not drawn),5%
O=C(NCC(c1cccs1)N1CCOCC1)c1ccc(Cl)s1 (stereo not drawn),-2%
CCOC(=O)c1sc(NC(=O)c2cccs2)cc1C,32µM*
Cc1cccc(N(CC(=O)Nc2c(C)n(C)n(-c3ccccc3)c2=O)S(C)(=O)=O)c1C,8%
Cc1cc(C)n(-c2nnc(C)n2NS(=O)(=O)c2ccc(F)cc2)n1,3%
CCOC(=O)C1(CCSC)NC(c2ccco2)C2C(=O)N(C)C(=O)C21 (stereo not drawn),1%
CCCCOC(=O)n1ccc(C(=O)Nc2ccccc2OC)n1,-4%
Cc1cccc(-n2c(O)c(C=Nc3c(C)n(C)n(-c4ccccc4)c3=O)c3ccccc3c2=O)n1,17%
Cc1ccc(NC(=O)COC(=O)Cn2c(C)csc2=O)cc1,3%
Cc1cc(NC(=O)CSc2nc(C3CCCCC3)nc3ccccc23)no1,-6%
Cc1cc(C)cc(OCC(=O)NCCN2CCOCC2)c1,4%
CC(C)=CCCC1(C)C=Cc2c(O)c3c(c(CC=C(C)C)c2O1)OC12C(=CCCC1C(C)(C)O[C@@]2(C/C=C(\C)C(=O)O)C(=O)O)C3=O (stereo partly drawn),7.9µM*
CCOC(=O)c1nnn(-c2nonc2NC(C)=O)c1C,2%
CCN1C(=O)CC(N2CCC(C(=O)N3CCOCC3)CC2)C1=O (stereo not drawn),8%
COC(=O)c1cc2ccsc2n1CC(=O)Nc1ccc(N(C)C)cc1,2%
COc1ccc(N(CC(=O)Nc2ccc(C)c(C)c2)S(=O)(=O)c2c(C)n[nH]c2C)cc1,-8%
O=C(COC(=O)Cc1ccsc1)NC1CCCCCC1,8%
O=S(=O)(c1ccc(N2CCN(S(=O)(=O)c3ccc4c(c3)OCCO4)CC2)nc1)N1CCCC1,?
COc1ncc2nc(C)c(=O)n(C)c2n1,-26%
CO[C@@H]1C[C@H](O[C@H]2[C@@H](C)[C@H](O[C@@H]3O[C@@H](C)C[C@@H](N(C)C)[C@@H]3OC(C)=O)[C@H](C)C[C@]3(CO3)C(=O)[C@H](C)[C@H](OC(C)=O)[C@H](C)[C@H](C)OC(=O)[C@@H]2C)O[C@H](C)[C@@H]1OC(C)=O,5%[25.6 µM]
C=CCn1c(SCc2ccc(Cl)cc2)nc2c1c(=O)[nH]c(=O)n2C,-7%
O=c1c2[nH]c3ccc(Cl)cc3c2ncn1Cc1ccccn1,-5%
Nc1nc(C2C(=O)CCCC2=O)cs1,?
O=C(Nc1nc2ccccc2n1CCN1CCOCC1)c1cn(-c2ccccc2)nc1-c1ccccc1,?
CC(=O)c1ccc(-c2nc3ccccc3n2C)o1,0%
Cc1ccc(N)c([N+](=O)[O-])c1,-8%
COCCn1c(-c2ccccc2)nc2oc3ccccc3c(=O)c2c1=O,-17%
Cc1ccc(S(=O)(=O)N2CCCC2C(=O)NCc2ccco2)cc1 (stereo not drawn),1%
c1ccc(-c2nn3c(-c4ccco4)nnc3s2)nc1,-16%
COC(=O)CN(C(=O)CSc1nnc(-c2cccc(OC)c2)o1)c1ccc(OC)cc1,2%
CN1CCN(CCc2ccc(Cl)c(Cl)c2)CC1,-1%
CCN1C(=O)/C(=C\N2CCN(C)CC2)SC1=S,12%
CC1NC(=O)NC1CCCCC(=O)O (stereo not drawn),5%
CC1CCC(C(=O)NC(C(=O)N2CCN(c3ccccn3)CC2)C(C)C)CC1 (stereo not drawn),7%
Cc1noc(C)c1C(=O)N1CCC2(CC1)CCN(C(c1ccccc1)c1ccccc1)CC2,-6%
O=C(Cc1nn[nH]n1)NCc1ccccc1Cl,-9%
O=C(NCc1ccncc1)c1ccc(Cl)c(S(=O)(=O)N2CCOCC2)c1,9%
CCCOC(=O)c1ccc(NC(=O)CCC(=O)OCC)cc1,-1%
C/C(=C1/SC(N2CCCC2)=NC1=O)c1ccc(Br)cc1,-4%
CCOC(=O)C1=C(C)Nc2nnnn2C1c1c[nH]c2ccccc12 (stereo not drawn),-12%
COc1ccc(-c2nc(C#N)c(NCCCN(C)C)o2)cc1OC,32µM*
CCN(CC)C(=O)CSc1nnc(-c2ccc(F)cc2)n1N,10%
COc1ccc(N2C(=O)CN=C2Nc2cccc(C)c2C)cc1OC,2%
CCC(Sc1nccn1C)C(=O)Nc1nnc(C)s1 (stereo not drawn),2%
Cc1ccc(C)c(/C(O)=C2\C(=O)C(=O)N(CCCN3CCOCC3)C2c2cccnc2)c1 (stereo not drawn),3%
CCc1ccccc1NC(=O)N[C@@H](C)C(=O)O,-3%

# More structures:
SMILES,HSD17B inh
COc1cc(C(=O)N2CCN(C(=O)C3CC3)CC2)cc(OC)c1OC,-3%
Cn1c(=O)[nH]c(=O)c2c1nc(NCc1ccco1)n2CCCc1ccccc1,-4%
COc1ccc(CCN2CC(C(=O)O)CC2=O)cc1 (stereo not drawn),8%
Cc1csc(NC(=O)c2cnc3ccccn3c2=O)n1,-10%
CN1CCCN(C(=O)c2ccc(Cl)c(S(=O)(=O)N(C)c3ccccc3)c2)CC1,9%
CC1(C)CC(=O)c2sc(NC(=O)CN3CCOCC3)nc2C1,-24%
O=C(c1ccco1)N1CCN(c2nc3ccsc3c(=O)s2)CC1,-10%
CCn1c(SCC(=O)NCCc2ccc(Cl)cc2)nnc1-c1cccs1,-2%
O=C(OCC(=O)N1CCc2ccccc21)C1=COCCO1,10%
CCOC(=O)c1sc2nc(CC(=O)OC)nc(NCCN3CCOCC3)c2c1C,?
O=C(/C=C\c1ccc(O)c(O)c1)O[C@@H](Cc1ccc(O)c(O)c1)C(=O)O,16µM*
Cc1ccc(CCNC(=O)C2CCN(S(=O)(=O)c3c(C)nn(C)c3C)CC2)cc1,0%
Cn1cccc1C(=O)NC(=O)CSc1nnc(C2CC2)n1-c1ccccc1,-2%
CCOC(=O)CC(N)c1ccc2c(c1)OCO2 (stereo not drawn),14%
NC(=O)c1ccccc1N=Cc1ccccn1,32µM*
Cc1nnc(NC(=O)c2c(F)c(F)c(F)c(F)c2F)s1,-9%
CSc1cc2c(cc1C(F)(F)F)N(C(=O)Nc1cccnc1)CC2,-2%
N#Cc1ccccc1N=C1CCCN1Cc1ccccc1,-1%
COc1ccc(C2C3=C(CC(C)(C)CC3=O)Oc3ncn(CC(C)C)c(=N)c32)cc1 (stereo not drawn),2%
O=C1C(C=NCCN2CCOCC2)=C(O)c2ccccc21,-8%
Cn1c(Cn2c(=O)sc3ccccc32)nnc1SCc1cccc(F)c1,1%
Cc1csc(=O)n1CCC(=O)O,1%
COc1ccc(Cn2nnnc2C(c2cc3cc(C)ccc3[nH]c2=O)N2CCOCC2)cc1 (stereo not drawn),?
COc1ccc(C(=O)N2CCC3(CC2)CCN(C(c2ccccc2)c2ccccc2)CC3)cc1,-4%
COc1ccc(S(=O)(=O)N(C)CC(=O)Nc2c(F)cccc2F)cc1,0%
O=C(NC1=NCCS1)Nc1ccccc1,4%
CCN(C(=O)CN1CCN(C)CC1)c1cccc2ccccc12,6%
CCC/C=C(\CCC)C(NS(=O)(=O)c1ccc(C(F)(F)F)cc1)c1ccc(-c2ccccc2)cc1 (stereo not drawn),-9%
CCOC(=O)N1CCN(c2cc3[nH]c(=S)[nH]c3cc2F)CC1,32µM*
O=C(O)C1C2C=CC(C2)C1C(=O)Nc1ccc2c(c1)OCCO2 (stereo not drawn),0%
Cc1ccc(Nc2nc(CSc3nnnn3-c3ccccc3)cs2)cc1,5%

# Gathered by group: the compounds so far with a thiophene ring, fused or not
SMILES,HSD17B inh
Cc1ccc2[nH]c(=O)c(CN(Cc3cccs3)Cc3nnnn3CC3CCCO3)cc2c1 (stereo not drawn),5%
O=C(NC1CCCCC1NC(=O)c1cccs1)c1cccs1 (stereo not drawn),?
O=C(CSc1nnc(Cc2cccs2)n1C1CCCCC1)N1CCCc2ccccc21,-26%
CC1(C)S[C@@H]2[C@H](NC(=O)[C@H](C(=O)O)c3ccsc3)C(=O)N2[C@H]1C(=O)O,3%[25.6 µM]
OB(O)c1csc2ccccc12,11%
O=C(COC(=O)c1cccs1)NCC1CCCO1 (stereo not drawn),7%
O=C(NCC(c1cccs1)N1CCOCC1)c1ccc(Cl)s1 (stereo not drawn),-2%
CCOC(=O)c1sc(NC(=O)c2cccs2)cc1C,32µM*
COC(=O)c1cc2ccsc2n1CC(=O)Nc1ccc(N(C)C)cc1,2%
O=C(COC(=O)Cc1ccsc1)NC1CCCCCC1,8%
O=C(c1ccco1)N1CCN(c2nc3ccsc3c(=O)s2)CC1,-10%
CCn1c(SCC(=O)NCCc2ccc(Cl)cc2)nnc1-c1cccs1,-2%
CCOC(=O)c1sc2nc(CC(=O)OC)nc(NCCN3CCOCC3)c2c1C,?
